# rRNA inh HTS: inhibits bacterial ribosomal RNA function over humanized ribosomes | E. coli WT GFP vs humanized-ribosome RFP mutants, fluorescence, 24 h; hits give low values; DMSO median 0, no signal -100 | GFP signal change (wild-type ribosome), % (concentration not given with the values) | 350,000 compounds, 1.6% hits;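 active means significant combined selectivity score with lowered wild-type GFP, culture density cut under 30%, mutant RFP and density less affected; inactive means any of these conditions unmet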; further: one replicate is shown; some compounds called inactive have numbers as strong as hits
# FGF22 binding: FGF22 (human) thermal shift binding | 340,000 compounds, 1.5% hits | recombinant FGF22 thermal shift, SYPRO orange fluorescence; percent of sucrose octasulfate shift, DMSO zero | AID 651658 | Q9HCT0 | calls only at 9.99 µM;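 active means melting point raised past a set limit in the mean and every replicate; three in four hits are not shown here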
# Target sequence (Q9HCT0 whole entry, looked up): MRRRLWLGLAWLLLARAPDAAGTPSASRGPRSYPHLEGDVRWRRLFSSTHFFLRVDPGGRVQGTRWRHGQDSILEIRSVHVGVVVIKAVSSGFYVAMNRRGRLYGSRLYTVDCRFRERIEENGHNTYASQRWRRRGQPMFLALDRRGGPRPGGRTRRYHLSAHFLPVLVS
# rRNA inh HTS OD600: further read-out of rRNA inh HTS, marked with its call; OD600 change, %; measured here: OD600 growth;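 optical density of the mix in the first replicate; 0 = DMSO median and -100 = no signal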
# rRNA inh HTS RFP: also measured in rRNA inh HTS; calls as there; RFP signal change, %; measured here: RFP humanized mutant strains;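 first replicate; 0 = DMSO median and -100 = no signal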
# An asterisk follows results filed as active; i = inactive. A portion of the library, so the mix of outcomes need not match the whole.
rRNA inh HTS	rRNA inh HTS OD600	rRNA inh HTS RFP	FGF22 binding	smiles
-30*	-8.5*	10*	i	COC(=O)C1=C(C)N(Cc2ccc(C(F)(F)F)cc2)C(=NCc2ccc(C(F)(F)F)cc2)NC1c1cccc(Cl)c1 (stereo not drawn)
0	7	-0.2	i	O=C([C@@H]1[C@@H](CO)[C@@H]2Cn3c(cccc3=O)[C@H]1N2Cc1cocn1)N1CCCCC1
-5	0	1.6	i	COc1ccc2c3c(n(C)c2c1)[C@@H](CO)N(S(=O)(=O)c1ccc(C)cc1)CC31CCN(Cc2cccnc2)CC1
1	2	-1.8	i	CCCC#Cc1ccc2c(c1)O[C@@H](CN(C)C(=O)c1ccccn1)[C@@H](C)CN([C@H](C)CO)S2(=O)=O
5	12	1.6	i	C[C@@H]1CN([C@H](C)CO)S(=O)(=O)c2ccc(C#Cc3cccnc3)cc2O[C@@H]1CN(C)C
-2	2	-2.3	i	Cc1noc(C)c1NC(=O)Nc1ccc2c(c1)C(=O)N([C@@H](C)CO)C[C@@H](C)[C@H](CN(C)C(=O)Nc1ccc3c(c1)OCO3)OCCCC[C@H](C)O2
-2	-7	2.1	i	Cn1cnc(S(=O)(=O)N[C@H]2CC[C@@H](CC(=O)Nc3ccc(-c4ccccc4)cc3)O[C@@H]2CO)c1
1	5	-0.8	i	C[C@H](CO)N1C[C@H](C)[C@H](CN(C)Cc2cccc(C(F)(F)F)c2)Oc2ncc(C#CCN(C)C)cc2C1=O

# Reformatted with values under each structure: 4 of the compounds above.
# The line under a structure holds: rRNA inh HTS | rRNA inh HTS OD600 | rRNA inh HTS RFP | FGF22 binding
COC(=O)C1=C(C)N(Cc2ccc(C(F)(F)F)cc2)C(=NCc2ccc(C(F)(F)F)cc2)NC1c1cccc(Cl)c1 (stereo not drawn)
    -30* | -8.5* | 10* | i
C[C@@H]1CN([C@H](C)CO)S(=O)(=O)c2ccc(C#Cc3cccnc3)cc2O[C@@H]1CN(C)C
    5 | 12 | 1.6 | i
CCCC#Cc1ccc2c(c1)O[C@@H](CN(C)C(=O)c1ccccn1)[C@@H](C)CN([C@H](C)CO)S2(=O)=O
    1 | 2 | -1.8 | i
C[C@H](CO)N1C[C@H](C)[C@H](CN(C)Cc2cccc(C(F)(F)F)c2)Oc2ncc(C#CCN(C)C)cc2C1=O
    1 | 5 | -0.8 | i

# Next section:
rRNA inh HTS	rRNA inh HTS OD600	rRNA inh HTS RFP	FGF22 binding	smiles
-4	-4	-3.9	i	COc1ccc2c3c(n(C)c2c1)[C@@H](CO)N(C(=O)NC1CCCC1)CC31CCN(C(C)=O)CC1
1	9	-4.4	i	CCC(=O)N(C)C[C@H]1Oc2cc(C#CCN(C)C)ccc2S(=O)(=O)N([C@H](C)CO)C[C@H]1C
2	8	-5.5	i	C/C=C/c1ccc2c(c1)O[C@H](CN(C)C(=O)Cc1ccccn1)[C@H](C)CN([C@H](C)CO)S2(=O)=O
-2	0	-0.5	i	C[C@@H]1CCCCO[C@H](CN(C)C(=O)Nc2cccc3ccccc23)[C@@H](C)CN([C@@H](C)CO)C(=O)c2cc(NC(=O)Cc3ccccc3)ccc2O1
5	14	-1.1	i	Cc1ccc(S(=O)(=O)NCC[C@@H]2CC[C@@H](NC(=O)C3CCOCC3)[C@@H](CO)O2)cc1
-4	1	-0.7	i	O=C(C[C@@H]1CC[C@H]2[C@@H](COC[C@@H](O)CN2C(=O)c2ccccc2F)O1)N1CCN(c2ccccc2)CC1
3	-4	11	i	COc1cccc(NC(=O)N2CC(=O)N3[C@@H](CO)[C@H](c4ccc(C#CC5CCCC5)cc4)[C@@H]3C2)c1
-2	-8	-1.5	i	C[C@H](CO)N1C[C@H](C)[C@@H](CN(C)S(=O)(=O)c2cccs2)Oc2ccc(NC(=O)Nc3ccc4c(c3)OCO4)cc2CC1=O
7	-2	-3.5	i	C[C@@H]1CN([C@@H](C)CO)C(=O)c2cc(C#CCN(C)C)cnc2O[C@@H]1CN(C)S(=O)(=O)c1cn(C)cn1
9	7	-1.6	i	CN1CCCCC(NC(=O)c2cccc([N+](=O)[O-])c2)C1=O (stereo not drawn)
4	5	9.6	i	C[C@@H]1CCCCO[C@H](CN(C)Cc2ccc(C(F)(F)F)cc2)[C@H](C)CN([C@@H](C)CO)C(=O)c2cc(NC(=O)c3ccccc3)ccc2O1
-4	-12	-0.5	i	O=C(C[C@H]1C[C@H]2c3cc(NC(=O)c4cccnc4)ccc3O[C@H]2[C@H](CO)O1)NCc1cccc(F)c1
2	-2	-1.9	i	CN(C)CC#Cc1ccc([C@@H]2[C@H](CO)N3CCCCN(C(=O)c4ccc5c(c4)OCO5)C[C@@H]23)cc1
3	3	-3.3	i	CO[C@H]1CN(C)C(=O)c2ccc(NS(=O)(=O)CC(F)(F)F)cc2OC[C@@H](C)N(CC2CCCCC2)C[C@H]1C
-3	-6	-2.9	i	Cc1ccc(S(=O)(=O)N(C)C[C@H]2Oc3ccc(NS(C)(=O)=O)cc3CC(=O)N([C@@H](C)CO)C[C@@H]2C)cc1
1	-2	1.4	i	O=C(NCCCN1CCOCC1)[C@@H]1[C@@H](CO)[C@@H]2Cn3c(cccc3=O)[C@H]1N2C(=O)NC1CCCC1
0	-1	0.2	i	CO[C@H]1CN(C)C(=O)c2cc(NC(=O)c3cccc(F)c3)ccc2OC[C@H](C)N(CC2CC2)C[C@@H]1C
-3	-7	0.9	i	Cc1ccc(S(=O)(=O)Nc2cccc3c2O[C@H](CN(C)C(=O)Nc2ccc(C(F)(F)F)cc2)[C@@H](C)CN([C@@H](C)CO)C3=O)cc1
-14	-24	-5.4	i	O=C(C[C@@H]1CC[C@@H]2[C@H](COC[C@@H](O)CN2Cc2nccs2)O1)NCc1ccc(-c2ccccc2)cc1
0	0	-2.7	i	Cc1ccc(S(=O)(=O)Nc2ccc3c(c2)C(=O)N([C@@H](C)CO)C[C@@H](C)[C@H](CN(C)Cc2ccncc2)O3)cc1
-2	-10	-2.5	i	CC(C)C(=O)Nc1ccc2c(c1)C(=O)N(C)[C@H]1CC[C@H](CC(=O)NC3CCCC3)O[C@H]1CO2
-3	-2	-0.3	i	Cc1cccc(S(=O)(=O)N2C[C@@H](O)COC[C@@H]3O[C@H](CC(=O)NCc4ccc5c(c4)OCO5)CC[C@H]32)c1
-2	-4	-1.3	i	CO[C@@H]1CN(C)C(=O)c2ccc(NC(C)=O)cc2OC[C@@H](C)N(C(=O)C2CCOCC2)C[C@@H]1C
0	7	0.5	i	Cc1noc(C)c1NC(=O)N(C)C[C@H]1Oc2c(NC(=O)c3ccc(-c4nccs4)cc3)cccc2C(=O)N([C@H](C)CO)C[C@@H]1C
0	8	23	i	CCNC(=O)C[C@H]1CC[C@@H]2[C@H](COC[C@@H](O)CN2C(=O)C2CCOCC2)O1
0	-8	4.6	i	C[C@@H]1CN([C@H](C)CO)C(=O)c2cc(NC(=O)Nc3ccc(F)cc3)ccc2O[C@@H]1CN(C)C(=O)Nc1cccc2ccccc12
-1	1	-1.2	i	COCC(=O)Nc1ccc2c(c1)C(=O)N(C)[C@@H]1CC[C@@H](CC(=O)Nc3ccccc3)O[C@@H]1CO2
-6	-1	12	i	OC[C@H]1[C@H](c2ccc(-c3ccccc3)cc2)[C@H]2CN(Cc3ccccn3)CCCCN21
1	3	-0.8	i	O=C(C[C@H]1CC[C@@H]2[C@H](COC[C@H](O)CN2S(=O)(=O)c2ccc(F)cc2)O1)N[C@H]1CCN(Cc2ccccc2)C1
-6	-10	2.0	i	COc1ccc(S(=O)(=O)N(C)C[C@@H]2Oc3c(NS(=O)(=O)c4ccc(F)cc4)cccc3C(=O)N([C@H](C)CO)C[C@H]2C)cc1
4	6	-0.6	i	CN1C(=O)c2cc(NS(C)(=O)=O)ccc2OC[C@@H]2O[C@H](CC(=O)N3CCOCC3)CC[C@@H]21
1	5	-3.9	i	COc1ccc2c3c(n(C)c2c1)[C@H](CO)N(C(C)=O)CC31CCN(Cc2ccccc2OC)CC1
2	1	2.1	i	CCCN1C[C@H](C)[C@H](OC)CN(C)C(=O)c2cc(NC(=O)c3ccccc3F)ccc2OC[C@@H]1C
1	9	-0.4	i	O=C(C[C@H]1C=C[C@@H](NS(=O)(=O)c2ccc(F)cc2)[C@H](CO)O1)NC1CCCCC1
2	12	-0.7	i	Cc1noc(C)c1NC(=O)Nc1ccc2c(c1)C(=O)N([C@H](C)CO)C[C@H](C)[C@H](CN(C)Cc1ccccc1)O2
1	-2	0.0	i	C[C@H]1CN([C@@H](C)CO)C(=O)c2cc(-c3cccc(F)c3)cnc2O[C@H]1CN(C)Cc1cncnc1
0	8	18	i	FC(F)(F)c1ccccc1Cc1c(-c2ccco2)nc2c3ccccc3ccn12
-1	-10	-0.9	i	CC(C)NC(=O)N(C)C[C@@H]1Oc2cc(C3=CCCCC3)ccc2S(=O)(=O)N([C@@H](C)CO)C[C@H]1C
5	6	0.8	i	C[C@H](CO)N1C[C@H](C)[C@H](CN(C)Cc2ccccc2)Oc2ccc(NC(=O)CCN3CCOCC3)cc2C1=O
10	11	-0.8	i	CC1(O)C(=O)C2(C)C=CC1C1C(=O)N(c3ccccc3)C(=O)C12 (stereo not drawn)
1	14	-0.3	i	CNC(=O)C[C@@H]1CC[C@H]2[C@@H](COC[C@@H](O)CN2S(=O)(=O)c2cccc(Cl)c2)O1
-3	-2	1.6	i	C[C@H]1CN([C@@H](C)CO)C(=O)c2cc(NC(=O)CCC(F)(F)F)ccc2O[C@H]1CN(C)Cc1ccc2c(c1)OCO2
6	23	2.4	i	COc1cccc(C(=O)Nc2ccc3c(c2)C(=O)N(C)[C@@H]2CC[C@@H](CC(=O)NCCCN4CCOCC4)O[C@@H]2CO3)c1
0	-1	3.2	i	C[C@H](CO)N1C[C@H](C)[C@@H](CN(C)Cc2ccc(C(=O)Nc3ccccc3N)cc2)Oc2ccc(NC(=O)CCN3CCOCC3)cc2CC1=O
4	6	-0.3	i	Cc1noc(C)c1NC(=O)N(C)C[C@@H]1Oc2ccc(NC(=O)C3CC3)cc2CC(=O)N([C@H](C)CO)C[C@@H]1C
6	-2	0.3	i	C[C@H]1CN([C@@H](C)CO)C(=O)c2cc(C#CCN(C)C)cnc2O[C@H]1CN(C)Cc1ccc(C(=O)O)cc1
0	-5	-2.1	i	COc1ccc(NC(=O)N(C)C[C@H]2Oc3c(NC(=O)C4CCCCC4)cccc3C(=O)N([C@H](C)CO)C[C@H]2C)cc1
-1	7	-2.0	i	CN1CCN(C(=O)C[C@@H]2CC[C@H]3[C@@H](COC[C@H](O)CN3Cc3cccc(F)c3)O2)CC1
2	3	-1.6	i	CO[C@@H]1CN(C)C(=O)c2ccc(NS(C)(=O)=O)cc2OC[C@@H](C)N(C)C[C@H]1C
0	-5	1.7	i	CCC(=O)N1C[C@@H](C)[C@@H](OC)CN(C)C(=O)c2ccc(NC(=O)c3cnccn3)cc2OC[C@H]1C
-2	0	0.3	i	C[C@@H]1CN([C@H](C)CO)C(=O)c2cc(NC(=O)Nc3cccc4ccccc34)ccc2O[C@@H](C)CCCCO[C@@H]1CN(C)Cc1ccncc1
2	7	-2.2	i	C[C@@H]1CN([C@@H](C)CO)C(=O)CCCn2cc(nn2)CO[C@@H]1CN(C)Cc1ccc(C(=O)Nc2ccccc2N)cc1
-3	1	-2.2	i	Cc1ccc(S(=O)(=O)Nc2ccc3c(c2)C(=O)N([C@H](C)CO)C[C@@H](C)[C@@H](CN(C)S(=O)(=O)c2ccc(F)cc2)OCCCC[C@H](C)O3)cc1
-1	-7	-1.1	i	C[C@@H]1CN([C@H](C)CO)S(=O)(=O)c2ccc(C#CC(C)(C)O)cc2O[C@H]1CN(C)C(=O)C1CCC1
-1	-4	3.3	i	C[C@H](CO)N1C[C@H](C)[C@H](CN(C)C(=O)Nc2cccc3ccccc23)Oc2ccc(NC(=O)Nc3ccc(F)cc3)cc2C1=O
0	-4	4.6	i	COc1ccc2c3c([nH]c2c1)[C@@H](CO)N(C(=O)CC1CC1)CC31CN(C(=O)c2ccccc2)C1

# Going on with the list:
rRNA inh HTS	rRNA inh HTS OD600	rRNA inh HTS RFP	FGF22 binding	smiles
4	-8	8.6	i	C[C@@H]1CN([C@H](C)CO)S(=O)(=O)c2ccc(Br)cc2O[C@H]1CN(C)CC1CCCC1
28	7	6.7	i	CC(C)[C@H](NC(=O)N1CCOCC1)C(=O)N1CCC[C@H]1C(=O)NCc1ccccc1
1	6	0.9	i	CO[C@@H]1CN(C)C(=O)c2ccc(NC(=O)c3cc(C)on3)cc2OC[C@@H](C)N(CC2CC2)C[C@@H]1C
1	15	-0.1	i	C[C@H]1CN([C@@H](C)CO)C(=O)c2cc(NC(=O)Nc3ccc(F)cc3)ccc2O[C@@H]1CN(C)S(C)(=O)=O
0	1	-3.9	i	O=C(C[C@H]1C[C@H]2c3cc(NC(=O)CC4CC4)ccc3O[C@H]2[C@@H](CO)O1)NCc1ccccn1

# Looked up one by one from the entries so far:
rRNA inh HTS	rRNA inh HTS OD600	rRNA inh HTS RFP	FGF22 binding	smiles
1	6	0.9	i	CO[C@@H]1CN(C)C(=O)c2ccc(NC(=O)c3cc(C)on3)cc2OC[C@@H](C)N(CC2CC2)C[C@@H]1C
4	-8	8.6	i	C[C@@H]1CN([C@H](C)CO)S(=O)(=O)c2ccc(Br)cc2O[C@H]1CN(C)CC1CCCC1
